RecA intein inh = inhibitors of M. tuberculosis RecA intein splicing | P9WHJ3 | cell-free RecA intein splicing, fluorescence | inhibition, %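 (about 9 µM by stock and volumes)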 | hit rate 0.75% among 290,000 | AID 2221; in the data active means inhibition above about 30%; inconclusive means no clear call, values can overlap the other calls;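 further: 0% = vehicle wells and 100% = reference inhibitor control wells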
Target sequence (P9WHJ3 whole entry, looked up): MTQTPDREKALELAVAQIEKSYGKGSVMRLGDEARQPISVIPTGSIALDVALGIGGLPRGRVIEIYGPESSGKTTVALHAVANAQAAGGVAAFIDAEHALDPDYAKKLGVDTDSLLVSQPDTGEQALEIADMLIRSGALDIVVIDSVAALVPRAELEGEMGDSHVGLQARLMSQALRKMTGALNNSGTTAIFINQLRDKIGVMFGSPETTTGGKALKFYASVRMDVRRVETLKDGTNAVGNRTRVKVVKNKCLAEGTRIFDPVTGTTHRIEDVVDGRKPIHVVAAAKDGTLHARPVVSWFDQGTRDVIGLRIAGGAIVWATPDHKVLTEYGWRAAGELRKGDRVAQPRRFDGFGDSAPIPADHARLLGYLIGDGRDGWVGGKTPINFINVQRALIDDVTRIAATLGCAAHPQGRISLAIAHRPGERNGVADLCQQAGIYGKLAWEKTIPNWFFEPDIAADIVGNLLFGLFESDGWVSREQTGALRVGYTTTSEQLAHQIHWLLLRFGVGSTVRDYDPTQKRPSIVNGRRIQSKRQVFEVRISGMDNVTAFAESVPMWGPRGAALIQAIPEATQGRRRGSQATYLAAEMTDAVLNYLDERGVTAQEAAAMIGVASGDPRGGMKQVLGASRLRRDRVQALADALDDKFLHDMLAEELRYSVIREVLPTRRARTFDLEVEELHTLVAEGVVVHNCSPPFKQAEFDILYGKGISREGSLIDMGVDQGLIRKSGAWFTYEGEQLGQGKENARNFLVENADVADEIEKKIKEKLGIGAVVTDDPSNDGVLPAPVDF
Mtb growth = M. tuberculosis H37Rv growth inhibitors, H37Rv strain (AID 1626); M. tuberculosis H37Rv growth inhibition; higher % means a stronger effect; inhibition, % at 10 µM; hits with a dose series show IC50 in µM; hit rate 0.95% among 220,000;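 active means confirmed in a dose series; inconclusive means inhibition above 80% but not taken into the dose series; inactive means below 80% or under 30% at every dose of the series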;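 further: bacteria incubated seven days before Alamar blue readout; 0% = bacteria only wells and 100% = bacteria with antibiotic wells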
Arbovirus inh = antivirals against arbovirus infection | inhibition, % at 10 µM | arbovirus infection cell-based antiviral screen | hit rate 0.37% among 200,000;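 active means inhibition from about 30%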;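 further: bluetongue infection of BSR cells; cell survival read as ATP light after 72 h; 0% = infected wells without compound and 100% = uninfected wells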
Mtb betalactam = beta-lactam sensitization of Mtb H37Rv; inhibition, % at 25 µM; hit rate 0.27% among 330,000; M. tuberculosis H37Rv growth with meropenem, percent inhibition; hits of this screen are not shown here; AID 434955;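 active means about 74% or more and at least 40 points above the plate without the antibiotic, then above 30% in a dose series; inconclusive means first-round hits that could not be retested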;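 further: growth measured after seven days incubation then overnight dye step; 0% = bacteria only wells and 100% = bacteria with antibiotic; twin plates without the antibiotic show which effects depend on it; some results filed as inactive read as strong as hits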
YopH inh = blocks Yersinia enterocolitica YopH tyrosine phosphatase; fluorescence Ex485/Em525; inhibition, %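 (about 10 µM by stock and volumes)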; hit rate 0.16% among 140,000; AID 898;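 active means inhibition of 50% or more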;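 further: controls were vehicle for no effect and minimum signal wells for full effect; inactives centre near -20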
Arbovirus inh repeat = recorded beside Arbovirus inh, whose call it bears; inhibition, %; measured here: 10K subset replicate screen; many hits read low in the repeat;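 first of two repeat runs on a subset; 0% = infected and 100% = uninfected wells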
Numbers without * were called inactive; ? = inconclusive; . = no result given; & = joins results of further samples.

The opening 3 entries (preview)
SMILES | RecA intein inh | Mtb growth | Arbovirus inh | Mtb betalactam | YopH inh | others
O=C(Nc1ccccc1)c1ccc(NCc2cccnc2)c(S(=O)(=O)N2CCOCC2)c1 | . | 2% | -7 | 3 | 18
CCCCSC1=NN1c1nc(N)nc(C)c1CC | -2.5 | -5% | 9 | -13 | -15
O=C(OCC(=O)N1CCCC1)c1ccc(O)cc1 | -1.0 | . | . | -4 | .

This part in full, repeating the preview:
SMILES | RecA intein inh | Mtb growth | Arbovirus inh | Mtb betalactam | YopH inh | others
O=C(Nc1ccccc1)c1ccc(NCc2cccnc2)c(S(=O)(=O)N2CCOCC2)c1 | . | 2% | -7 | 3 | 18
CCCCSC1=NN1c1nc(N)nc(C)c1CC | -2.5 | -5% | 9 | -13 | -15
O=C(OCC(=O)N1CCCC1)c1ccc(O)cc1 | -1.0 | . | . | -4 | .
COc1cc(-c2cc(=O)c3c(O)c(OC)c(OC)c(O)c3o2)ccc1O | -4.7 | -10% | -2 | 5 | .
O=C(COC(=O)c1cccc(S(=O)(=O)N2CCCCC2)c1)NC1CCCc2ccccc21 (stereo not drawn) | 1.2 | 2% | -7 | -6 | -21
O=C(CCN1CCN(C/C=C/c2ccccc2)CC1)Nc1cccc(F)c1 | 4.2 | -4% | -4 | 5 | .
Oc1ccccc1C(Nc1nccs1)c1ccc2cccnc2c1O (stereo not drawn) | -6.9 | 12% | . | 41 | .
O=C(Cn1nc(-c2ccccc2)c2ccccc2c1=O)NCC1CCCO1 (stereo not drawn) | 1.1 | 9% | 2 | 72 | -27
Cc1ccc(C)c(NC(=O)CSc2n[nH]c(-c3ccccn3)n2)c1 | 51* | . | . | 93 | .
Cc1ccccc1NC(=O)CSc1nc2c(c(=O)n(C)c(=O)n2C)n1C | 15 | . | . | -1 | .
CCn1cc(C(=O)NC2CCc3ccccc32)c(=O)c2ccc(C)nc21 (stereo not drawn) | 1.6 | 8% | -6 | . | 11
COc1ccc2nc(NC(=O)CSc3nccc(C)n3)sc2c1 | 0.7 | -6% | 1 | -1 | -21
Cc1cc(Nc2ccc(F)cc2Cl)n2ncnc2n1 | -0.6 | -6% | 14 | -1 | -19 | Arbovirus inh repeat=-1
CCOC(=O)c1cnc(SCc2nc(N)nc(Nc3ccc(C)cc3)n2)nc1N | 3.1 | 15% | 44* | 68 | -6
CCOC(=O)c1cc2sccc2n1CC(=O)N1CCc2ccccc21 | 1.2 | 3% | -4 | 5 | -12
O=C(NCCC1=CCCCC1)c1cc(COc2c(F)cccc2F)on1 | 2.2 | . | . | 8 | .
Cn1cnnc1SCC(=O)Nc1ccccc1Oc1ccccc1 | 0.3 | 3% | 8 | 4 | .
CCc1nnc(NC(=O)CSc2nnc(-c3ccoc3C)n2-c2ccccc2)s1 | -3.8 | -5% | -3 | -13 | -52
CCSCc1nc2ccccn2c1Br | . | 5% | -3 | . | .
CCOc1ccc(N2C(=O)CC(N3CCN(c4ccc(Cl)cc4)CC3)C2=O)cc1 (stereo not drawn) | 0.2 | . | . | -1 | .
CCOC(=O)N1CCN(C(=O)c2ccc3nc(SCc4ccc(F)cc4)n(C)c3c2)CC1 | 5.3 | . | -1 | -1 | -31
Cc1c(C(=O)N(Cc2ccc(F)cc2)C2CCS(=O)(=O)C2)oc2ccccc12 (stereo not drawn) | 2.1 | . | . | 9 | .
CC(=O)N1CCN(c2ccc(NCc3ccc(C)cc3)cc2)CC1 | -10 | -12% | -13 | 0 | -39
Cc1[nH]ccc(=O)c1Oc1ncc(C(F)(F)F)cc1Cl | -1.0 | . | 7 | -8 | .
C=CCn1c(COc2ccccc2)nnc1SCC(=O)O | -2.6 | 3% | 2 | -5 | -45
C/C(=N\NC(=O)CSCc1ccc(Cl)cc1)c1ccc2c(c1)OCCO2 | -1.7 | -6% | -2 | 80 | -41
O=C(NNC(=O)c1ccc(Cl)cc1Cl)c1cnccn1 | 0.7 | 48% | . | 47 | .
Cn1ccnc1C(O)c1cc(C(C)(C)C)c(O)c(C(C)(C)C)c1 (stereo not drawn) | 6.7 | 10µM* | -15 | 99 | -51
O=C(COC(=O)C1CCN(c2ccc(C(F)(F)F)cn2)CC1)c1ccc(Cl)cc1 | 2.9 | . | . | -3 | .
Cc1nn(C(=O)c2ccoc2C)c(N)c1-c1ccccc1 | 10 | 5% | 1 | -2 | . | Arbovirus inh repeat=-2
NS(=O)(=O)c1ccc(-c2ccc(/C=C3\C(=O)Nc4ccccc43)o2)cc1 | -1.0 | . | . | -4 | .
Cc1cc(NC(=O)c2cc([N+](=O)[O-])cc([N+](=O)[O-])c2)n(-c2ccccc2)n1 | 0.9 | ? | -5 | 66 | -14
COc1ccc(C(=O)NCC(c2cccnc2)N2CCN(c3ccccc3)CC2)cc1OC (stereo not drawn) | -1.7 | 2% | 1 | -11 | -19 | Arbovirus inh repeat=-2
O=C(O)CNC(=O)c1cccc(C(F)(F)F)c1 | -0.3 | 5% | 11 | 3 | .
CC(=O)Nc1ccc([N+](=O)[O-])cn1 | 0.3 | -1% | 5 | -11 | -29
CCCC1Cc2[nH]c(=O)c(C#N)cc2CO1 (stereo not drawn) | -3.4 | 0% | . | -3 | .
CCOC(=O)N1CCN(C(=O)c2ccccc2N(Cc2ccccc2)S(=O)(=O)c2ccc(OC)cc2)CC1 | 6.9 | -15% | -14 | 2 | .
CC(C)N1CCC(N2CCN(C/C=C/c3ccccc3)CC2CCO)CC1 (stereo not drawn) | 0.7 | -1% | -17 | 6 | .
O=C(CCN1CCN(c2ccccc2)CC1)N/N=C/c1ccccc1O | -2.1 | 4% | -25 | 1 | .
COc1ccc(CCNC(=O)c2c(C)nn(-c3ccccc3)c2Cl)cc1 | 4.2 | . | . | ? | .

Random excerpt: 4 compounds from above, in no set order.
SMILES | RecA intein inh | Mtb growth | Arbovirus inh | Mtb betalactam | YopH inh | others
CCCC1Cc2[nH]c(=O)c(C#N)cc2CO1 (stereo not drawn) | -3.4 | 0% | . | -3 | .
COc1ccc(CCNC(=O)c2c(C)nn(-c3ccccc3)c2Cl)cc1 | 4.2 | . | . | ? | .
COc1ccc(C(=O)NCC(c2cccnc2)N2CCN(c3ccccc3)CC2)cc1OC (stereo not drawn) | -1.7 | 2% | 1 | -11 | -19 | Arbovirus inh repeat=-2
O=C(CCN1CCN(c2ccccc2)CC1)N/N=C/c1ccccc1O | -2.1 | 4% | -25 | 1 | .

Remaining list, next part:
SMILES | RecA intein inh | Mtb growth | Arbovirus inh | Mtb betalactam | YopH inh | others
Oc1ccc(Cl)cc1C=Nc1ccc(Br)cc1 | -4.9 | -2% | -17 | -12 | .
C[C@]12CCC(=O)C[C@@H]1CC[C@@H]1[C@@H]2CC[C@]2(C)[C@@H](C(=O)COC(=O)CCC(=O)O)CC[C@@H]12 | 1.4&1.2 | . | . | -10&-4 | .
O=C(NCC(=O)N1CCN(c2ccccc2)CC1)c1ccco1 | -2.6 | . | . | -3 | .
O=C(CCCN1C(=O)C(c2ccccc2)Oc2cccnc21)Nc1ccccc1Cl (stereo not drawn) | 1.6 | . | . | -1 | .
Cc1cc(-c2n[nH]c(=S)o2)c(C)n1-c1ccccc1 | -0.6 | 2% | 6 | 16 | -117
CCSc1nnc(CCNC(=O)OC(C)(C)C)o1 | 4.0 | -7% | 0 | 0 | -4
COc1ccc(S(=O)(=O)c2cnc3ccccc3n2)cc1 | 35* | . | 16 | 61 | .
O=C(O)C[C@H]1c2cc(F)ccc2S(=O)(=O)N1C1CCCC1 | 0.6 | -11% | . | -8 | .
CCN(c1ccccc1)S(=O)(=O)c1cc(C(=O)Nc2ccc(F)c(F)c2)ccc1F | 6.9 | 12% | -18 | 1 | -25
COc1ccc(COc2cc(-c3cccc(OC)c3)nc3ccc(NC(=O)c4ccc(N(C)C)cc4)cc23)cc1 | -0.3 | 15% | -26 | -2 | -18
CC1=C(C(N)=O)C(c2ccc(C)o2)C(C(N)=O)=C(C)N1 | -1.1 | -14% | 13 | -9 | -16
COCCCNC(=O)/C=C/c1ccc(Cl)cc1 | 1.2 | -16% | 2 | 4 | -33
Cn1nnnc1SCCNCc1ccccc1OCc1ccc(Cl)cc1 | 6.2 | 5% | 0 | 2 | -9
CCOC(=O)CSc1ncnc2c1sc1nc(N3CCOCC3)c3c(c12)CCCC3 | 2.5 | ? | -12 | 100 | -22
Cc1ccc(C(C)NC(=O)Cc2cccs2)cc1C (stereo not drawn) | 3.0 | . | . | -14 | .
COc1cc(/C=C2\C(=O)ON=C2c2ccccc2)cc(Br)c1O | 2.2 | . | . | 12 | .
Cc1ccc(C)c(NC(=O)COC(=O)CNC(=O)c2ccccc2Cl)c1 | 1.3 | 5% | 1 | 2 | .
COC(=O)c1ccc(COc2ccc(-c3nn[nH]n3)cc2)cc1 | 0.4 | -4% | 2 | -20 | -17
CC1(C)Cc2ccccc2-c2nnc(-c3ccc(O)cc3)n21 | 0.5 | . | 11 | 0 | -26
COc1ccc(C(=O)NCCS(=O)(=O)NCc2ccccc2)cc1 | -3.4 | . | . | -12 | .
CCOCCCNC(=O)Cc1ccc(OC)c(OC)c1 | -3.4 | 1% | 0 | 6 | 7
COC(=O)c1ccccc1NC(=O)CSc1n[nH]c(-c2ccncc2)n1 | 2.0 | . | . | -9 | .
O=C1NCC(NC(=O)C(F)(F)F)c2cc3c(cc21)OCO3 (stereo not drawn) | 1.7 | 2% | 1 | -10 | .
CCCc1[nH]nc2c1C(c1c(C)nn(-c3ccccc3)c1Cl)C(C#N)=C(N)O2 (stereo not drawn) | 7.1 | -1% | 11 | -3 | -25
C=CCN=c1scc(C)n1/N=C/c1ccc(O)c(O)c1 | -5.6 | -4% | -10 | 7 | .
Cc1ccc(C2=NNC(C(O)C(O)C(O)C(C)O)S2)cc1 (stereo not drawn) | 0.0 | 6% | 6 | -2 | 0
CC(C)NC(=O)COC(=O)c1ccccc1C(=O)c1ccccc1 | 1.2 | 3% | 21 | -2 | .
CC1Cc2ccccc2N1c1ncnc2c1nnn2Cc1ccccc1Cl (stereo not drawn) | -1.4 | 0% | -5 | -2 | -9
CC(CCc1ccccc1)NC(=O)CNC(=S)N(Cc1cccs1)C1CCCC1 (stereo not drawn) | 9.9 | -2% | -29 | . | .
CN1/C(=C/C=C(C#N)C#N)C=Cc2ccccc21 | -1.4 | 0% | . | 0 | .
Cc1nnc(SCC(=O)NCc2ccco2)n1-c1ccc(F)cc1 | -0.1 | -5% | 3 | 1 | -11
CCN1/C(=N\N)c2cccc3cccc1c23 | -6.6 | 14% | 1 | 16 | .
O=C(OCc1c(Cl)cccc1Cl)c1cccnc1Cl | -0.5 | -9% | 1 | 10 | -27
Cc1cc(C)c2c(=O)cc(C(=O)NCc3ccccc3)oc2c1 | -0.4 | . | . | -8 | .
O=C(COc1ccc(Cl)cc1)NC(=S)Nc1ccccc1N1CCOCC1 | 0.9 | . | . | -7 | .
COc1ccc(NC(=O)C2CSC(C)(C)N2C=O)cc1 (stereo not drawn) | 0.0 | -9% | 10 | -4 | .
CC(O)C(NS(=O)(=O)c1ccc(Cl)cc1)C(=O)OCC(=O)Nc1cccnc1Cl (stereo not drawn) | -1.2 | 6% | -2 | -4 | -22
Cn1c(=O)oc2cc(S(=O)(=O)N3CCC(C(=O)NCc4ccc(F)cc4)CC3)ccc21 | -0.9 | 2% | 3 | -6 | -5
C=CCNC(=S)NNC(=O)COc1ccc(Br)cc1 | 4.3 | 4% | -3 | 3 | -12
CCn1c(CSc2nnc(-c3ccncc3)n2CCOC)nc2cc(C(=O)O)ccc21 | 1.7 | 2% | 1 | 2 | .
CC(=O)O/N=C(/c1nonc1N)N1CCN(c2ccc([N+](=O)[O-])cc2Cl)CC1 | -6.7 | 6% | -20 | -1 | -20
COc1ccc2oc(C(=O)OCC(=O)N3CCCC(C)C3)c(C)c2c1 (stereo not drawn) | 1.6 | . | . | 5 | .
COc1ccc(-c2nc3c(s2)CN(S(C)(=O)=O)CC3)cc1OC | 0.8 | . | . | 1 | .
Cc1nnc(-c2ccccc2)c(=O)n1/N=C/c1c(O)ccc2ccccc12 | 23 | -6% | -36 | 98 | -37
COc1ccc(/C=N/c2nc3ccccc3n2CCN2CCCCC2)cc1OC | -2.9 | -6% | 10 | -4 | -15
Cc1cc(OCC(=O)NCC(O)c2ccccc2)c2c(C)cc(=O)oc2c1 (stereo not drawn) | -0.6 | . | . | 6 | .
CCOC(=O)CC(=O)NC(C)(C)CCCCC(C)(C)NC(=O)CC(=O)OCC | 0.4 | 3% | . | -2 | .
Cc1n[nH]c(=O)nc1N/N=C/c1ccco1 | -5.8 | 8% | 4 | 52 | .
C(=N\Nc1ncnc2ccccc12)/c1ccccc1 | -7.5 | 5% | 8 | 100 | .
NS(=O)(=O)c1ccc(CCNC(=S)Nc2ccccc2)cc1 | -1.1 | 6% | 0 | 40 | -32

Only part of the results is shown; count on the stated rates, not on these rows.
